# RN4220 kill = S. aureus RN4220 growth inhibition | AID 1259311 | OD600, 16 h | 330,000 tested, 0.33% active | inhibition, % (test concentration not listed);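 active means z-score of -3 or lower and OD600 up to 0.18 on both plates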;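 further: plate controls were untreated cells for no effect and reference antibiotic for full effect; stock transfer was 100 nL into about 80 µL; one replicate is shown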
# Mtb hypoxia rep = reduces hypoxia-regulated biosensor signal in M. tuberculosis; M. tuberculosis hypoxia-regulated fluorescent reporter, fluorescence; fluorescence inhibition, % (test concentration not listed); 300,000 tested, 0.1% active;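 active means 35 to 45% if threefold the growth effect, above 45% if 1.5-fold the growth effect; inactive means the rest, general growth blockers included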;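 further: wells of about 50 µL received 100 nL stock; 0% = vehicle wells and 100% = reference inhibitor wells; whole bacteria with a GFP reporter of the hypoxia response; strong numbers were not always called active; many hits fall short of the cut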
# Sa ugtP lethal = compounds lethal to S. aureus RN4220 ugtP deletion mutant; OD600 growth, 16 h; some inactives read as strong as hits; growth inhibition, % (concentration not given with the values); 330,000 tested, 0.54% active;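 active means z-score under -3 and OD600 up to 0.15 on both plates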;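 further: plate controls were untreated wells for no effect and antibiotic for full effect; wells of about 80 µL received 100 nL stock; the first replicate is given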
# PrP 5UTR inh = suppresses PrP 5' UTR mRNA reporter expression. cell-based PrP 5' UTR mRNA reporter, plate reader. inhibition, % (test concentration not listed). 340,000 tested, 0.35% active;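 active means every replicate at 50% or more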;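 further: 0 = median of the neutral control wells; tested in H4 reporter cells; numbers are from one replicate; inactives centre near -14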
# BJeLR viability = kills HRASV12-expressing BJeLR cells. BJeLR (HRASV12) viability, CellTiter-Glo ATP luminescence, 48 h; reference of the scale not given here. inhibition, % (concentration not given with the values). 300,000 tested, 0.17% active. AID 1554;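 active means replicate mean above 50%; inconclusive means above 50% but judged a plate artefact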;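 further: 50 nL library stock added to about 25 µL; numbers are from one replicate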
# Autofluor counter = counter-screen for toxin protease inhibitors: compound fluorescence | 360,000 tested, 3.1% active | fluorescence intensity (no concentration beside the values) | AID 624483 | compound autofluorescence counterscreen, microsphere flow cytometry; hits give high values;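 active means at least 3 SD above the mean of all compounds, about 16000 in these data; inconclusive means too few beads counted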;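 further: 100 nL of 1 mM stock went into each well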
# Mtb hypoxia rep growth = recorded beside Mtb hypoxia rep, whose call it bears; growth inhibition, %; measured here: M. tuberculosis growth (absorbance);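 0% = vehicle and 100% = reference antibiotic; read after six days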
# Starred values were filed as active, the others as inactive; u = inconclusive; x = not tested or not shown.
1	CCCC1=C(C(=O)OCC)C(c2c(C)nn(-c3ccccc3)c2Cl)C(C#N)=C(N)O1 (stereo not given)
2	CC1CCCN(c2cc3c(cc2[N+](=O)[O-])C(=O)N(c2ccccc2)C3=O)C1 (stereo not given)
3	CC(C)CCn1c(=O)c(C(=O)NCc2ccc3c(c2)OCO3)c(O)c2ccccc21
4	CC(C)OC(=O)C(CC(=O)O)N1CCOCC1 (stereo not given)
5	Cc1ccc(C(=O)NCCn2cc(SCC(=O)Nc3nnc(C)s3)c3ccccc32)cc1
6	O=C(c1ccncc1)N1CCN(S(=O)(=O)c2cccc(F)c2)CC1
7	COc1ccccc1/C=C/C=N/NC(=O)Cc1cccs1
8	O=C(O)c1ccc(NS(=O)(=O)c2ccc(Cl)c(C(=O)Nc3ccccc3[N+](=O)[O-])c2)cc1
Screen / compound no.	1	2	3	4	5	6	7	8
RN4220 kill	3.1	7.9	-0.7	4.1	1.2	0.2	x	4.8
Mtb hypoxia rep	6	6	11	7	5	17	x	10
Mtb hypoxia rep growth	9	5	13	3	9	6	x	-1
Sa ugtP lethal	-17	2	37	7	-3	13	x	7
PrP 5UTR inh	-11	-14	1	-45	-22	-15	-54	-11
BJeLR viability	-5	-16	3	-3	-7	-2	-3	1
Autofluor counter	3337	2625	3746	3402	6089	5073	2421	x

9	COc1cc(OC)cc(-c2nnc(SCC(=O)N3c4ccccc4Sc4ccccc43)o2)c1
10	NS(=O)(=O)c1ccc2nc(NC(=O)c3ccc4ncsc4c3)sc2c1
11	CC12CC(c3ccccc3O1)C(C(=O)OCc1ccccc1)C(=O)N2 (stereo not given)
12	COc1cccc(C(=O)OCC(=O)Nc2sc3c(c2C(N)=O)CCC3)c1O
13	CCOc1ccc(C(=O)NC2CCN(C(=O)N3CCCC3)CC2)cc1
14	COc1ccc(C)cc1NC(=O)c1cccc(C(=O)Nc2cc(C)ccc2OC)c1
15	Cc1ccc(NC(=O)NCC2CC2(Cl)Cl)cc1 (stereo not given)
16	CCCOc1ccc2cc(-c3ccccn3)c(=O)oc2c1
Screen / compound no.	9	10	11	12	13	14	15	16
RN4220 kill	-3.3	x	6.6	2.4	-12	1.7	x	3.8
Mtb hypoxia rep	x	x	8	1	8	-11	x	4
Mtb hypoxia rep growth	x	x	2	-2	7	5	x	-1
Sa ugtP lethal	2	x	9	0	2	-3	x	8
PrP 5UTR inh	-10	-11	-16	-8	-5	8	-102	78*
BJeLR viability	7	8	-1	x	0	-6	-2	30
Autofluor counter	2089	6064	7380	8919	3092	x	5741	2563

17	Cc1cc(C)c(NC(=O)CN(C)C(=O)c2ccc(OCc3ccccc3)cc2)c(C)c1
18	COc1ccc(SCCc2ccncc2)cc1
19	COc1ccccc1NS(=O)(=O)c1cc(NC(=O)CN2C(=O)NC3(CCCC3)C2=O)ccc1C
20	Fc1cccc(NC(=S)N2CCN(c3ccccn3)CC2)c1
21	Nc1nnnn1N=Cc1cc(Br)ccc1O
22	O=C1NC(=O)C(=Cc2ccc(-c3cc(Cl)ccc3[N+](=O)[O-])o2)C(=O)N1
23	COc1ccc2nc3oc(C(=O)NCc4cccs4)cc3cc2c1
24	COc1ccc(Cn2c(C)nc3ccc([N+](=O)[O-])cc3c2=O)cc1
Screen / compound no.	17	18	19	20	21	22	23	24
RN4220 kill	-0.2	-1.8	3.9	3.0	7.4	1.0	0.1	2.3
Mtb hypoxia rep	5	2	1	10	10	-1	x	-2
Mtb hypoxia rep growth	-4	0	-5	0	0	12	x	5
Sa ugtP lethal	1	-9	2	7	3	-4	1	2
PrP 5UTR inh	-19	-21	-13	-32	x	-23	-36	-57
BJeLR viability	x	-1	-8	2	x	9	8	-8
Autofluor counter	8174	3186	u	3383	x	6710	3297	4063

25	CC1(C)OC(=O)N(CCC(=O)Nc2cccc(F)c2)C1(C)O (stereo not given)
26	COc1ccc(C(C)=NN=C(N)N)c(OC)c1
27	CC(C)C(=O)N1CCN(c2ccccc2NC(=S)NC(=O)c2ccco2)CC1
28	c1ccc(NCc2ccncc2)cc1
29	COc1ccc(F)c(CN2CCN(CCc3ccccc3)C(CCO)C2)c1 (stereo not given)
30	C=CC1=C(C(=O)O)N2C(=O)C(NC(=O)C(=NOCC(=O)O)c3csc(N)n3)C2SC1 (stereo not given)
31	Cn1c(=O)c(=O)n(C)c2cc(S(=O)(=O)N3CCC(Cc4ccccc4)CC3)ccc21
32	COc1ccc(-n2c(SCC(=O)NN=Cc3ccccc3OCC(=O)O)nc3ccccc3c2=O)cc1
Screen / compound no.	25	26	27	28	29	30	31	32
RN4220 kill	-2.7	3.3	5.0	-1.7	3.1	93*	2.5	2.2
Mtb hypoxia rep	-1	4	0	3	1	19	1	-6
Mtb hypoxia rep growth	-7	-8	0	-6	3	18	-2	7
Sa ugtP lethal	1	7	10	4	8	99*	1	2
PrP 5UTR inh	-44	x	-7	-14	2	x	-17	x
BJeLR viability	-16	x	13	1	-3	x	-6	x
Autofluor counter	3061	x	4402	2863	3352	x	5354	x

# Nothing new here: four of the compounds above.
25	CC1(C)OC(=O)N(CCC(=O)Nc2cccc(F)c2)C1(C)O (stereo not given)
26	COc1ccc(C(C)=NN=C(N)N)c(OC)c1
27	CC(C)C(=O)N1CCN(c2ccccc2NC(=S)NC(=O)c2ccco2)CC1
28	c1ccc(NCc2ccncc2)cc1
Screen / compound no.	25	26	27	28
RN4220 kill	-2.7	3.3	5.0	-1.7
Mtb hypoxia rep	-1	4	0	3
Mtb hypoxia rep growth	-7	-8	0	-6
Sa ugtP lethal	1	7	10	4
PrP 5UTR inh	-44	x	-7	-14
BJeLR viability	-16	x	13	1
Autofluor counter	3061	x	4402	2863

# Continuation:
33	COc1ccc(CCN2C(=O)C(Oc3ccccc3C)C2c2ccc3c(c2)OCO3)cc1 (stereo not given)
34	Cc1ccc(OCCOc2ccc(Cl)cc2Cl)c([N+](=O)[O-])n1
35	CCOC(=O)c1cc(CC)sc1/N=C/C1C(=O)NC(=S)NC1=O
36	CCn1c(=O)c(CCC(=O)N2CCN(c3ccccn3)CC2)c(C)c2c(C)nn(-c3cccc(C)c3)c21
37	COc1ccc(-c2csc3nc[nH]c(=O)c23)cc1OC
38	COc1ccc(N2CCN(C(=O)c3ccc(CNS(=O)(=O)c4cc(C)ccc4C)cc3)CC2)cc1
39	Cc1nn(C)cc1NC(=O)c1nn(C)cc1[N+](=O)[O-]
40	O=C(Cc1cccc(NC(=O)C2CCCN(C(=O)C3CCCCC3)C2)c1)Nc1ccc(C(=O)N2CCCCC2)cc1 (stereo not given)
Screen / compound no.	33	34	35	36	37	38	39	40
RN4220 kill	3.6	5.3	x	-0.3	0.9	1.8	x	2.0
Mtb hypoxia rep	13	3	x	-12	3	10	x	-2
Mtb hypoxia rep growth	2	-2	x	6	-1	-3	x	1
Sa ugtP lethal	6	-6	x	-10	-2	7	x	0
PrP 5UTR inh	-5	-28	-3	-8	x	-8	-23	0
BJeLR viability	5	-18	-6	-13	-6	7	3	x
Autofluor counter	7672	2268	2597	5394	3054	5985	9673	3580

# 3 compounds out of the list, ordered by heavy-atom count, highest first:
36	CCn1c(=O)c(CCC(=O)N2CCN(c3ccccn3)CC2)c(C)c2c(C)nn(-c3cccc(C)c3)c21
33	COc1ccc(CCN2C(=O)C(Oc3ccccc3C)C2c2ccc3c(c2)OCO3)cc1 (stereo not given)
35	CCOC(=O)c1cc(CC)sc1/N=C/C1C(=O)NC(=S)NC1=O
Screen / compound no.	36	33	35
RN4220 kill	-0.3	3.6	x
Mtb hypoxia rep	-12	13	x
Mtb hypoxia rep growth	6	2	x
Sa ugtP lethal	-10	6	x
PrP 5UTR inh	-8	-5	-3
BJeLR viability	-13	5	-6
Autofluor counter	5394	7672	2597

# (continued)
41	CCc1ccccc1N1CC(C(=O)N2Cc3ccccc3CC2C(N)=O)CC1=O (stereo not given)
42	COCCNC(=S)N1CCc2cc(OC)c(OC)cc2C1c1cccs1 (stereo not given)
43	Cc1cccc2cc(C(c3nnnn3Cc3ccccc3)N3CCN(c4ccccc4)CC3)c(=O)[nH]c12 (stereo not given)
44	Cc1cccc(C(=O)ON=C(N)Cc2ccc([N+](=O)[O-])cc2)c1
45	C=CCn1c(=O)c(C(=O)Nc2cc(C)ccn2)c(O)c2ccccc21
46	O=C(c1ccc2[nH]c(=O)c(=O)[nH]c2c1)N1CCN(c2ccccc2)CC1
47	Cc1ccc(C)c(NC(=S)NNC(=O)c2csc(C)c2C)c1
48	CCc1cccc(NC(=O)c2ccc(CNc3c(N4CCCC4)c(=O)c3=O)cc2)c1
Screen / compound no.	41	42	43	44	45	46	47	48
RN4220 kill	3.8	10	3.2	1.2	6.9	2.2	-2.1	0.2
Mtb hypoxia rep	-4	9	-2	0	5	-5	-1	-9
Mtb hypoxia rep growth	3	5	7	-4	8	-11	3	-9
Sa ugtP lethal	2	4	-1	-8	24	6	1	4
PrP 5UTR inh	-11	-29	-10	x	-24	0	-4	-8
BJeLR viability	x	22	5	x	-7	7	1	-6
Autofluor counter	8460	4254	18218*	x	3769	4442	2435	4708

49	COc1cccc(C(c2nnnn2Cc2ccc(F)cc2)N2CCC(C(N)=O)CC2)c1OC (stereo not given)
50	CCn1c2ccccc2c2cc(C3N=C(N)Nc4nc5ccccc5n43)ccc21 (stereo not given)
51	Cc1ccc(-n2nc3c(n2)/C(=N/O)CC/C3=N\O)cc1
52	O=C(COC(=O)c1c2ccccc2cc2ccccc12)NCC(F)(F)F
53	CN(Cc1nc(-c2ccc3c(c2)OCO3)no1)CC1(N2CCOCC2)CCCCC1
54	COC(=O)c1ccc(Cn2cnc3c(sc4nc(N5CCOCC5)c5c(c43)CCCC5)c2=O)o1
55	CC(C)CNC(=O)COC(=O)C1c2ccccc2Oc2ccccc21
56	CC(C)NC(=O)NC(=O)CN1C(=O)NC2(CCc3ccccc3C2)C1=O (stereo not given)
Screen / compound no.	49	50	51	52	53	54	55	56
RN4220 kill	4.6	3.9	x	-0.7	30	-0.7	7.3	1.1
Mtb hypoxia rep	x	13	x	15	13	x	18	2
Mtb hypoxia rep growth	x	22	x	5	7	x	6	-1
Sa ugtP lethal	-3	-4	x	-10	8	12	5	1
PrP 5UTR inh	-15	-19	-30	-8	-13	-8	77*	-13
BJeLR viability	10	-7	-1	3	9	-6	1	0
Autofluor counter	2286	5853	u	2544	3261	2688	3068	3392

57	COc1ccccc1-n1c(C)cc(/C=C2\C(=N)N3N=C(CC(=O)N4CCOCC4)SC3=NC2=O)c1C
58	Cc1ccc(C(=O)NNC(=O)c2cccs2)cc1
59	Cc1ccc(C(=O)N/N=c2\oc3ccccc3cc2C(N)=O)cc1
60	COCC(=O)Nc1nc2n(n1)C(c1ccccc1)CC(c1ccc(OC)cc1)N2 (stereo not given)
61	O=C(COc1ccc(-n2ccnc2)cc1)Nc1cccc(F)c1
62	O=[N+]([O-])c1ccc(SCc2ccncc2)nc1
63	CCc1ccc(NC(=O)CS(=O)CC(=O)NCC2OCCc3ccccc32)cc1 (stereo not given)
64	COc1ccc(N2CCN(C(=O)c3ccc(CS(=O)c4cccc(C)c4)o3)CC2)cc1 (stereo not given)
65	Cn1nc(-c2ccc(C(=O)N3CCN(CCO)CC3)cc2)c2ccccc2c1=O
66	CN1CCN(C(c2cccc(Cl)c2)c2ccccc2Cl)CC1 (stereo not given)
67	CCOCc1nc(N)[nH]c(=O)c1Cc1ccc(OC(C)C)cc1
Screen / compound no.	57	58	59	60	61	62	63	64	65	66	67
RN4220 kill	4.8	7.8	x	4.8	-0.2	13	1.4	6.3	0.7	-6.3	13
Mtb hypoxia rep	-1	11	x	8	8	8	6	-3	6	x	3
Mtb hypoxia rep growth	-1	9	x	5	3	3	4	2	7	x	11
Sa ugtP lethal	1	5	x	-1	-4	-14	0	11	0	5	6
PrP 5UTR inh	-31	-24	-20	-2	-5	0	-15	1	-6	-9	-5
BJeLR viability	1	-6	2	-2	4	-1	-4	-9	-3	3	11
Autofluor counter	4837	4528	3813	11249	3527	3238	9002	5661	21691*	2705	2547

# Entries by screen from the list:
# RN4220 kill, compounds 44–47: 1.2, 6.9, 2.2, -2.1
# BJeLR viability, compounds 44–47: x, -7, 7, 1
# Mtb hypoxia rep growth, compounds 44–47: -4, 8, -11, 3

# Assay outcomes: PubChem, several laboratories
